Assay outcomes deposited in PubChem by National Center for Advancing Translational Sciences (NCATS).
D2 ag = human D2 receptor agonism in beta-arrestin assay. DiscoveRx PathHunter D2 beta-arrestin, luminescence, 90 min; 100% = 57 uM dopamine signal. activation, % (concentration not given with the values). 0.084% of 360,000 active; in the data active = activation above about 40%; inconclusive = about 15% to 40%; inactive = below about 15%; note: compound concentration not given in the record; the text of the record calls up to 30% inactive
Target sequence (P14416 whole entry, looked up): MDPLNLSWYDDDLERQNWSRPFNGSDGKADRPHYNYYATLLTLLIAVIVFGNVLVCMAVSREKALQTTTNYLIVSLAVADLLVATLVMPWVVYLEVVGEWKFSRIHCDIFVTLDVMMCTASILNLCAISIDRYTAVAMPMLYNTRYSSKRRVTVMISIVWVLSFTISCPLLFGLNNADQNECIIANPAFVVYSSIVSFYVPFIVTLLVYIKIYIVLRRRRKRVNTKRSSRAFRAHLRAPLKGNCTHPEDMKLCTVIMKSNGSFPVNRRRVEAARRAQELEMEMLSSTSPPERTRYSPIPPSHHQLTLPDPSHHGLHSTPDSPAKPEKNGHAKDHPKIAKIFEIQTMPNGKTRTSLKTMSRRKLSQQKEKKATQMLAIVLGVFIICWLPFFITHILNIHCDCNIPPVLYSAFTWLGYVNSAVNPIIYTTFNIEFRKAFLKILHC
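Agonist mode: compounds alone added to overnight-plated D2 PathHunter cells for 90 min at 37 C, with 57 uM final dopamine (EC100) defining full response. Beta-arrestin recruitment detected by chemiluminescent reagent, read after 1 h at ambient temperature.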
PINK1 modulator = modulators of PINK1 expression; PINK1 immunofluorescence, high-content cytometry, 24 h; 0.2% of 410,000 active; Potency, µM (top dose mostly 76.6 µM), for inactives: at the top dose activation (PINK1 increase), usual class: activators; AID 624263; active = well fitted activation curve with a large enough effect; inconclusive = small, poorly fitted or top-dose-only effect; inactive = flat fitted curve, though single readings scatter; cell line not stated here;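 note: potency is the fitted concentration of half-maximal effect; % of control where 0% means no effect; nearly all actives have a fitted effect of over 65% in size; a mitochondrial uncoupler was the plate control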
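Measures PINK1 amount and localization on or inside mitochondria by immunofluorescence. Stable cells get compounds at 5 concentrations for 24 hours before fixation and staining; CCCP controls included.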
CtBP-E1A inh = CtBP/E1A binding inhibition | AlphaScreen GST-E1A/His-CtBP binding, 1536-well; stronger effect = lower value; control for the full effect not named in the record | activity change, % (concentration not given with the values) | 0.49% of 340,000 active; in the data active means activity change below about -65%; inconclusive means about -30% to -65%; inactive means above about -30%; note: % is set by controls: 0 for no effect and ±100 for the full control effect
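Protein mix (5X: 125 nM each GST-E1A, His-CtBP) was incubated with pinned compound 2 h at 37 deg C in dark, in 50 mM Tris pH 8.0 buffer with 300 mM NaCl. Glutathione donor and nickel acceptor beads followed; AlphaScreen signal read after 1 h.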
TRPML1 ag = activates the human TRPML1 channel; Q9GZU1; activation, % (test concentration not listed); TRPML1-expressing cells, Ca2+ dye fluorescence, FDSS; host cell line not named in the record; reference of the full effect not given here; AID 624414; 0.12% of 410,000 active; in the data active = activation above about 50%; inconclusive = about 30% to 50%; inactive = below about 30%; note: 0% is about no effect; the text of the record puts the active cut at 80%
Target sequence (Q9GZU1 whole entry, looked up): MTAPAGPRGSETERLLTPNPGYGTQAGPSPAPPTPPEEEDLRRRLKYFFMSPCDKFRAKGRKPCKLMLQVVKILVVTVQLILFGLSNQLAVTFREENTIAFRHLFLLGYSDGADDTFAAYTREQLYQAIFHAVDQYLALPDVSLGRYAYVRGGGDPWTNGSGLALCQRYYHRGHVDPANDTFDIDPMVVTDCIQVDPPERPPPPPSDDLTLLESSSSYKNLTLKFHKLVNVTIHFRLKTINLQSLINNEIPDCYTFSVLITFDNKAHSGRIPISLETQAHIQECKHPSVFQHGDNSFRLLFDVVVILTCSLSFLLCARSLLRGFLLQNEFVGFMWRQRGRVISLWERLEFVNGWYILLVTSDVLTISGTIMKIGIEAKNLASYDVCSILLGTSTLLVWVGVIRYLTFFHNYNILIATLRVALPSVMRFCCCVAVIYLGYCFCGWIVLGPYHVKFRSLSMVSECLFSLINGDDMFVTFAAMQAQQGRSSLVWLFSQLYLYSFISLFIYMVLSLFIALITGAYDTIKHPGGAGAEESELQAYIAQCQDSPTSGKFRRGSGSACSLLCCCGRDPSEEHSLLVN
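Tet-induced TRPML1-DL cells, 1,500 per well, cultured overnight, were loaded with a no-wash Ca2+ dye for 45–90 min. Calcium fluorescence was recorded on the FDSS for 110 s after compound addition, before the EC80 agonist (4 uM 54-4) was added.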
D2 PAM = positive allosteric modulators of human D2 dopamine receptor; 0.23% of 360,000 active; potentiation, % (concentration not given with the values); DiscoveRx D2 beta-arrestin cells, luminescence, 90 min; 100% = 57 uM dopamine signal; active = potentiation of 50% or more; inconclusive = 30% to 50%; inactive = 30% or less;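 note: compound concentration not given in the record; tested on top of an EC20 dose of dopamine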
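PathHunter beta-arrestin assay in DiscoveRx D2 cells. Compounds were added with an EC20 of dopamine (50 nM final) for 90 min at 37 deg C. Luminescence was read 1 h after detection reagent, with 57 uM dopamine as the EC100 control.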
Six1-Eya2 inh = Six1/Eya2 interaction inhibition; Q15475+O00167; AlphaScreen GST-Six1/His-Eya2 binding, biochemical; stronger effect = lower value; control for the full effect not named in the record; activity change, % (no concentration beside the values); 0.56% of 360,000 active; in the data active = activity change below about -65%; inconclusive = about -30% to -65%; inactive = above about -30%; note: % is set by controls: 0 for no effect and ±100 for the full control effect; compound concentration not given in the record
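Compounds are tested against tagged Six1 and Eya2 proteins bridged by glutathione donor and nickel acceptor beads; after a one-hour incubation at 37 °C without light, AlphaScreen emission is recorded.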
Numbers without * were called inactive; u = inconclusive; x = not tested or not shown; & = joins results of further samples; [ ] = dose if it differs, or a comment.

Each structure is followed by: Six1-Eya2 inh | D2 PAM | PINK1 modulator | TRPML1 ag | D2 ag | CtBP-E1A inh
1	CCC(=O)Nc1nc(C)c(-c2csc(Nc3ccccn3)n2)s1
    -7 | -5 | -0.7% | 0.4 | -2.2 | -17
2	COc1ccc(N2CCOCC2)c(NC(=O)c2ccco2)c1
    -7 | -1 | 2.3% | 3.8 | 3.9 | -13
3	Cc1cc(C)n2c(Nc3ccc4c(c3)OCCO4)c(CCc3ccccc3)nc2n1
    -26 | x | -0.3% | -1.0 | x | 0
4	CC(C)(C)c1ccc(NC(=O)Nc2ccc3ccccc3n2)cc1
    6 | -13 | 4.7% | -0.8 | -3.1 | x
5	Cc1cc2nc3c(c(=O)n2[nH]1)CCCC3
    -7 | -12 | -0.9% | -0.1 | -1.8 | -6
6	O=C(CSc1nncn1-c1ccccc1)NC1CCCC1
    4 | 0 | 0.0% | -0.4 | 5.6 | 5
7	COc1ccc(CN2CCC(n3nccc3NC(=O)CCOc3ccccc3)CC2)cc1C
    -15 | -38 | 1.8% | 1.1 | -1.5 | -6
8	O=C(c1ccccc1)N1N=C(c2ccc(F)cc2)CC1(O)C(F)(F)F (stereo not drawn)
    0 | -6 | 8.6% | 3.2 | -3.6 | x
9	O=C(NCCc1ccccc1)c1ccc(Br)o1
    3 | -3 | 0.3% | -0.6 | -2.4 | 10
10	Cc1nc2ccccc2nc(C)c1=NOCc1ccc(Cl)cc1Cl
    -4 | -8 | 30% | 0.3 | -4.2 | 23
11	CC(C)(C)NC(=O)C(c1ccc(O)cc1)N(Cc1ccco1)C(=O)CCC(=O)Nc1ccccn1 (stereo not drawn)
    -4 | 4 | 0.4% | -0.1 | 1.1 | 3
12	COc1ccc(NC(=O)CCC(=O)N2CCN(S(=O)(=O)c3ccc(C)cc3)CC2)c(OC)c1
    -4 | 0 | -6.8% | 0.7 | -1.1 | 0
13	COc1ccc(C(=O)/C=C\c2ccc(NC(=O)c3cccs3)cc2)cc1
    5 | -3 | u | -0.5 | -1.2 | 9
14	Cc1nn(-c2cc(N3CCCCC3)ccc2N)c(=O)c2ccccc12
    -5 | -12 | 1.8%[38.3 µM] | 0.1 | -3.6 | -16
15	CC(=O)c1cccc(NC(=O)CCN2C(=O)C3CC=CCC3C2=O)c1 (stereo not drawn)
    8 | -4 | 0.4% | -0.2 | 7.3 | 4
16	Cc1cc(C)c(C(=O)CSc2nnc(N)s2)c(C)c1
    1 | 0 | 0.4% | 1.6 | -4.9 | 0
17	COc1cccc(NC(=S)N(CCc2c(C)[nH]c3ccccc23)Cc2cccs2)c1
    -20 | -1 | 9.0% | -0.7 | -0.9 | -15
18	Cc1nn(CC(=O)N2CCN(C)CC2)c(=O)c2c1sc1ccccc12
    18 | -4 | -0.3% | -0.2 | 0.4 | 0
19	COc1ccc(C(=O)NCc2nnc(SCC(=O)N3CCCC3)o2)cc1
    15 | -7 | 0.4% | -0.4 | 5.3 | -7
20	CNC(=S)Nc1cc(Cl)ccc1Oc1ccccc1
    17 | -2 | 0.7% | -0.3 | -3.8 | 17
21	CC(NC(=O)c1ccc(Br)o1)c1ccc(-n2ccnc2)cc1 (stereo not drawn)
    -2 | -12 | -0.8% | -1.2 | -0.3 | 5
22	CN(C)CCNC(=O)Cc1ncc(C(F)(F)F)cc1Cl
    1 | 4 | 1.8% | 0.4 | -23 | 6
23	Cc1cc(C)nc(Nc2cccc(C(F)(F)F)c2)n1
    3 | 9 | 2.5% | x | 4.0 | x
24	COc1ccccc1N1CCN(C(=O)c2ccccc2N(C)S(=O)(=O)c2ccc(C)cc2)CC1
    -3 | -11 | 1.9% | 0.7 | -3.4 | -6
25	NS(=O)(=O)c1ccc(NC(=O)CN2CCN(S(=O)(=O)c3cccs3)CC2)cc1
    3 | -2 | -3.1% | 0.0 | 6.4 | 3
26	CCOc1ccccc1/C=N/NC(=O)c1cccc(S(=O)(=O)N(CC)CC)c1
    -12 | -2 | 1.1% | 0.0 | 2.8 | -17
27	Cc1ccc(/C=N/n2c(COc3ccccc3)n[nH]c2=S)cc1
    -1 | -11 | 6.6% | x | 1.1 | 1
28	O=C(CN1CCN(C(=O)c2ccco2)CC1)Nc1ccccc1-c1ccccc1
    -2 | 7 | 0.9% | 0.2 | 10 | 0
29	O=C(CN1C(=O)/C(=C\c2ccc(C(F)(F)F)cc2)Sc2ccccc21)NCc1ccco1
    4 | 5 | u | 1.5 | 1.3 | -10
30	CCN1CCN(C(=O)c2cc3c(=O)n4ccccc4nc3s2)CC1
    -8 | -8 | -0.8% | 1.6 | -5.2 | -2
31	CCOC(=O)C1(Cc2ccccc2C)CCCN(C(=O)CCC(=O)OC)C1 (stereo not drawn)
    2 | 6 | 0.9% | -0.7 | 3.2 | 8
32	O=[N+]([O-])c1cc(Cl)cc(/C=N/n2cnnc2)c1O
    1 | -25 | 2.1% | 1.6 | -12 | -28
33	Cc1nc2ccc(N3C(=O)CCC3=O)cc2[nH]1
    -8 | u | 1.0% | -0.7 | -0.4 | 7
34	CCOC(=O)Cn1cnc2c(nnn2-c2cccc(OC)c2)c1=O
    0 | 5 | 6.7% | -0.2 | -6.4 | x
35	Cc1cccc(N(CC(=O)NCc2ccc(F)cc2)C(=O)c2csnn2)c1C
    -6 | 12 | 0.8% | 1.1 | -0.1 | x
36	COc1ccc(-c2c(-c3cc(OC)cc(OC)c3)n(C)c3ccc(-c4cnc(OC)nc4)cc23)cc1
    -8 | -10 | 1.8% | 0.1 | -1.1 | -27
37	COc1ccc([C@H]2C[C@@H](O)[C@H](n3cc(COC(=O)c4ccccc4)nn3)CN2C(=O)C2CCCCC2)cc1
    0 | 1 | 0.2% | -0.2 | -5.8 | 2
38	O=C(/C=C/c1ccco1)NCC(=O)N/N=C/c1ccc([N+](=O)[O-])cc1
    -15 | -1 | 1.3% | 0.4 | 3.1 | x
39	O=C(NC1CC2CCC1C2)C1COc2ccccc2O1 (stereo not drawn)
    2 | -5 | 0.6% | -0.9 | -1.3 | 5
40	COC(=O)CCc1c(COC(C)=O)[nH]c(C(=O)OCc2ccccc2)c1C
    -9 | -14 | -1.3% | 3.5 | 13 | -19
41	O=C(CN1C(=O)c2ccccc2S1(=O)=O)c1ccc2c(c1)OCCO2
    -1 | -15 | 3.3% | -0.4 | -2.1 | x
42	O=C(NCc1ccc(F)cc1)c1ccc(S(=O)(=O)N2CCCC2)cc1
    -11 | -1 | 1.8% | -0.9 | -4.2 | 2
43	COc1ccc(S(=O)(=O)CCC(=O)Nc2c(C)n(C)n(-c3ccccc3)c2=O)cc1
    6 | 4 | -2.6% | 1.0 | 0.1 | 0
44	Cc1ccc(-n2nc3c(c2NC(=O)c2c(-c4ccccc4Cl)noc2C)CS(=O)(=O)C3)c(C)c1
    -5 | -14 | 4.6% | 0.0 | -2.6 | 1
45	COc1ccc(NC(=O)c2cccc(N3C(=O)C4C5C=CC(C6CC56)C4C3=O)c2)c(OC)c1 (stereo not drawn)
    -1 | 6 | 0.3% | -1.7 | -3.9 | -4
46	Cc1ccc(Cc2c(-c3ccc(Cl)cc3)nc3c(C)cc(Br)cn23)cc1
    0 | -5 | 1.0% | -0.1 | -6.7 | 7
47	Cc1cccc([N+](=O)[O-])c1NC(=O)COC(=O)C1CCCO1 (stereo not drawn)
    7 | -5 | 0.2% | 0.0 | -1.2 | 13
48	COC(=O)c1ccc(SC)cn1
    1 | 0 | 2.6% | -0.6 | 2.2 | 3
49	OC(c1ccc(F)c(F)c1)c1nc(-c2cc(F)cc(F)c2)cs1 (stereo not drawn)
    11 | -6 | 15% | 0.5 | 9.9 | 11
50	O=C(CN(Cc1ccco1)C(=O)CNS(=O)(=O)c1ccc(Cl)cc1)NCC1CCCO1 (stereo not drawn)
    -1 | -3 | 0.2% | -0.5 | -0.5 | 1

(listing goes on)
Each structure is followed by: Six1-Eya2 inh | D2 PAM | PINK1 modulator | TRPML1 ag | D2 ag | CtBP-E1A inh
51	CCC(=O)N1N=C(c2ccc(NS(=O)(=O)c3ccccc3)cc2)CC1c1ccco1 (stereo not drawn)
    -18 | 6 | 9.5% | 1.1 | 9.8 | x
52	O=C(CN1CCC(C(=O)c2ccc(Cl)cc2)CC1)Nc1ccc2c(c1)OCCO2
    -12 | -12 | -0.9%[38.3 µM] | 4.1 | -0.5 | -12
53	Cc1ccnc(Nc2nc(-c3ccc(Cl)cc3)cs2)c1
    2 | -4 | 6.4% | 0.3 | 4.1 | -1
54	O=C(CN(Cc1ccco1)S(=O)(=O)c1ccccc1)N/N=C/c1cccc(O)c1
    -27 | -10 | -2.4% | 2.4 | -17 | u
55	CCc1ccc(NC(=O)c2ccc(OC)c([N+](=O)[O-])c2)cc1
    -1 | -40 | 2.6% | 1.4 | -6.4 | -2
56	CC(=O)Nc1ccc(N2CC(C)(C)C2=O)cc1
    15 | -5 | 0.7% | 0.5 | -5.5 | x
57	CCc1ccccc1NC(=S)N(CCCN1CCOCC1)Cc1ccccn1
    -1 | -13 | 3.0% | -0.3 | -1.4 | 3
58	Cc1cc(=O)n(C2CCS(=O)(=O)C2)[nH]1 (stereo not drawn)
    11 | 2 | -2.3% | 0.8 | 0.6 | 1
59	CCCCNC(=O)[C@@H]1CC=C[C@@H]2CCN(Cc3ccc(Cl)c(Cl)c3)C(=O)[C@@H]21
    0 | -4 | 0.2% | 0.0&-0.9 | -7.4 | 5
60	O=C(O)c1cccc(S(=O)(=O)NCCC(c2ccccc2)c2ccccc2)c1
    39 | -1 | -0.4% | 0.6 | -2.8 | 2

Shown screen by screen: entries from further up
(14) Cc1nn(-c2cc(N3CCCCC3)ccc2N)c(=O)c2ccccc12
(15) CC(=O)c1cccc(NC(=O)CCN2C(=O)C3CC=CCC3C2=O)c1 (stereo not drawn)
(16) Cc1cc(C)c(C(=O)CSc2nnc(N)s2)c(C)c1
(17) COc1cccc(NC(=S)N(CCc2c(C)[nH]c3ccccc23)Cc2cccs2)c1
compound no.	14	15	16	17
Six1-Eya2 inh	-5	8	1	-20
D2 PAM	-12	-4	0	-1
PINK1 modulator	1.8%[38.3 µM]	0.4%	0.4%	9.0%
TRPML1 ag	0.1	-0.2	1.6	-0.7
D2 ag	-3.6	7.3	-4.9	-0.9
CtBP-E1A inh	-16	4	0	-15

The listing continues.
Each structure is followed by: Six1-Eya2 inh | D2 PAM | PINK1 modulator | TRPML1 ag | D2 ag | CtBP-E1A inh
61	Cc1csc(SCC(=O)Nc2cccc3nsnc23)n1
    44 | -4 | -1.9% | 2.4 | 0.0 | 12
62	O=c1cc(CO)oc(C(Nc2ccccn2)c2ccccc2Cl)c1O (stereo not drawn)
    -5 | -4 | -1.0% | 0.7 | -2.2 | -4
63	Cc1[nH]c(=O)c(C#N)cc1-c1ccncc1
    -8 | -10 | 0.7% | -0.5 | -5.4 | -29
64	O=S(=O)(c1ccc(F)cc1)N1CCN(c2ccc(-c3ccccc3)nn2)CC1
    4 | -2 | 0.1% | -0.5 | 7.4 | x
65	N/C(=N\OC(=O)c1ccccc1)c1ccn[nH]1
    -2 | -2 | 1.0% | 1.2 | -11 | 1
66	O=C(COC(=O)/C=C/c1cccc(F)c1)NC(=O)NC1CCCC1
    1 | -9 | 0.5% | 4.0 | -0.9 | -13
67	O=C(NC12CC3CC(CC(C3)C1)C2)c1cncc(O)c1
    -15 | -3 | 15%[38.3 µM] | 0.0 | -3.2 | -8
